NS1 inh = blocks influenza NS1 protein function. S. cerevisiae slowed by influenza A NS1, growth recovery by OD600. Potency, µM (doses to about 46.1 µM), inactives show at the highest dose activity, positive = more growth. 0.4% of 270,000 active. AID 2326; also: actives are rising curves; nearly all actives have a fitted effect of over 50% in size
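S. cerevisiae expressing influenza A NS1, grown in glucose, washed, then diluted 1:100 into pH 6.0 -URA galactose medium with 23 nl compound. Growth recovery read as OD600; NS1-free strain serves as control.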
Cruzain inh noDet = inhibitors of Trypanosoma cruzi cruzain without detergent; P25779; purified cruzain, Z-FR-AMC fluorescence, no detergent; Potency, µM, for inactives: max response, negative = inhibition, most hits filed as inhibitors; 2.3% of 200,000 active; AID 1476; active = well fitted curve in the direction sought with a large enough effect; inconclusive = small, poorly fitted or top-dose-only effect, or another doubt; inactive = no such curve, though single readings can be large; an effect the other way counts as inactive or inconclusive;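 also: plate controls were enzyme without inhibitor for no effect and buffer without enzyme for full effect; nearly all actives have a fitted effect of over 40% in size; top concentration of the series not given in the record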
Target sequence (P25779 123-467 limits assumed): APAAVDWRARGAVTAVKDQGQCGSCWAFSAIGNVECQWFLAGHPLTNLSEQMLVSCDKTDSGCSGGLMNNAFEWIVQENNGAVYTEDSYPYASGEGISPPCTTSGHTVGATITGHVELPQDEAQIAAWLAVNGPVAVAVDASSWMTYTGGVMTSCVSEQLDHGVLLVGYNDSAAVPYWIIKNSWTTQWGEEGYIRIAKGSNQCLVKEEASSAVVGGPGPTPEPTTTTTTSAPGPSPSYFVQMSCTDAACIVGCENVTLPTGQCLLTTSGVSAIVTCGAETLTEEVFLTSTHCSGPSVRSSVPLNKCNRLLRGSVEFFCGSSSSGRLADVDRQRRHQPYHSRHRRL
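Purified cruzain at 1.5 nM, pre-incubated 15 min with compound at room temperature in 100 mM sodium acetate pH 5.5, 5 mM DTT, 0.00005% Triton X-100. Reaction started with 2 uM Z-FR-AMC; AMC fluorescence increase over 60 s gives rate.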
Lassa entry inh = blocks Lassa virus binding to or entry into cells | Lassa virus pseudotype entry inhibition, cell reporter; control for the full effect not named in the record | Potency, µM (highest dose often 37.9 µM), for the others: at the top dose activity change, negative = inhibition, hits mostly inhibitors | 1.2% of 300,000 active; active means well fitted inhibition curve with a large enough effect; inconclusive means small, poorly fitted or top-dose-only effect, or effect the other way; inactive means flat fitted curve, though single readings scatter; tested in HEK293 cells; also: % is scaled to controls: 0 for no effect and ±100 for the full control effect; nearly all actives have a fitted effect of over 50% in size; luciferase read-out
SARS PLpro yeast = blocks SARS-CoV papain-like protease in a yeast assay; S. cerevisiae expressing SARS-CoV PLpro, growth rescue; control for the full effect not named in the record; Potency, µM (titrated, usually from 32.9 µM), for inactives: at the top dose activity, positive = growth rescue; 0.19% of 330,000 active; also: 0% is about no effect; nearly all actives have a fitted effect of over 55% in size; growth read by luminescence after 48 h
Cruzain inh Det = blocks cruzain activity in presence of Triton detergent; purified cruzain, Z-FR-AMC fluorescence, 0.01% Triton; Potency, µM, for inactives: max response, negative = inhibition, usual class: inhibitors; 0.43% of 200,000 active; AID 1478; active = well fitted curve in the direction sought with a large enough effect; inconclusive = small, poorly fitted or top-dose-only effect, or another doubt; inactive = no such curve, though single readings can be large; an effect the other way counts as inactive or inconclusive;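 also: plate controls were neutral wells for no effect and buffer without enzyme for full effect; nearly all actives have a fitted effect of over 40% in size; top concentration of the series not given in the record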
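Detergent-containing arm of a paired screen for aggregation-based inhibition: 0.01% Triton X-100 present. Cruzain at 1.5 nM cleaved 2 uM Z-FR-AMC at pH 5.5 with 5 mM DTT; AMC fluorescence gain over 60 s measured activity.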
StopGo reporter = lowers the luciferase signal of an FMDV 2A StopGo reporter; human cells with a luciferase reporter of 2A StopGo recoding; control for the full effect not named in the record; Potency, µM (highest dose often 57.9 µM), for inactives: at the highest dose signal change, negative = less light; 1.2% of 410,000 active; active = well fitted falling curve with a large enough effect; inconclusive = small, poorly fitted or top-dose-only effect; inactive = no such curve, though single readings can be large or run the other way; tested in HEK293T cells; also: % is scaled to controls: 0 for no effect and ±100 for the full control effect; nearly all actives have a fitted effect of over 45% in size; luciferase light after 4 h
MARV entry inh = inhibitors of Marburg virus binding or cell entry; Marburg virus pseudotyped entry inhibition, cell reporter; control for the full effect not named in the record; about a third of the inactives were read at about 46 µM; Potency, µM (titrated, usually from 37.8 µM), without a hit: at the highest dose activity change, negative = inhibition, hits mostly inhibitors; 1.8% of 300,000 active; active = well fitted inhibition curve with a large enough effect; inconclusive = small, poorly fitted or top-dose-only effect, or effect the other way; inactive = flat fitted curve, though single readings scatter; tested in HEK293 cells; about a fifth of its hits are not listed in these tables; also: % is scaled to controls: 0 for no effect and ±100 for the full control effect; luciferase read-out
RE007 growth inh = less growth of the S. pombe RE007 Vpr strain; S. pombe RE007 Vpr strain, BacTiter-Glo ATP luminescence, 24 h; control for the full effect not named in the record; Potency, µM (highest dose often 92.2 µM), without a hit: top-dose activity change, negative = less growth; 0.21% of 360,000 active; AID 651644; active = well fitted falling curve with a large enough effect; inconclusive = small, poorly fitted or top-dose-only effect; inactive = no such curve, though single readings can be large or run the other way;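 also: % is scaled to controls: 0 for no effect and ±100 for the full control effect; nearly all actives have a fitted effect of over 50% in size; the assay follows cell death caused by Vpr and the record does not say whether a fall means rescue or toxicity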
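Fission yeast RE007 carrying one integrated HIV-1 vpr copy, seeded at OD 0.01 in PMG+AL medium with 23 nL pinned compound. Grown 24 h at 30 degrees; viability read by BacTiter-Glo luminescence after 5 min.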
* hit, by the source's call; ? = inconclusive; / = no result given; & = joins results of further samples; [ ] = dose if it differs, or a comment. Unless noted, calls follow the shape of the dose curve; as a rule, active means well fitted rising curve with a large enough effect; inconclusive means small, poorly fitted or top-dose-only effect; inactive means no such curve, though single readings can be large or run the other way. Potency is read from the fitted curve at half-maximal effect.

SMILES	NS1 inh	Cruzain inh noDet	Lassa entry inh	SARS PLpro yeast	Cruzain inh Det	StopGo reporter	MARV entry inh	RE007 growth inh
CC(=O)c1ccc(Sc2nnc(C)s2)c([N+](=O)[O-])c1	-1%	/	/	0%	/	-9%	/	12%
COc1ccccc1NC(=O)C/C(N)=N/O	13µM*	-1%	4%	10%	3.5%	-3%	5%	-12%
O=[N+]([O-])/C(C(Cl)=C(Cl)Cl)=C(/NC1CC1)Sc1ccccc1	/	/	0%[46.1 µM]	-1%	/	43%[activator]	-20%[46.1 µM]	-6%
N#Cc1ccsc1NC(=O)COC(=O)c1ccc2ccccc2c1	17%	?	15%	-6%	-7.5%	29%	-8%	14%
O=C(Cn1nnc(-c2ccccc2Cl)n1)Nc1cccc(S(=O)(=O)N2CCCC2)c1	/	/	?	2%	/	-1%	?	-1%
CCn1c(SCc2cccc(C)c2)nnc1-c1ccc(C)cc1	-110%	-1%	?	-12%	2.0%	13%	0%	-4%
COC(=O)Nc1ccc(S(=O)(=O)N(CCO)CCO)cc1	4%	-7%	5%	-12%	5.5%	2%	-2%	-11%
CN1CCN(C(=O)/C(=C/c2ccc(N(C)C)cc2)NC(=O)c2ccccc2)CC1	0%	/	9%[46.1 µM]	-3%	/	9%	-7%[46.1 µM]	1%
Cc1ccc(S(=O)(=O)N(C)C)cc1NC(=O)Nc1c(-c2ccccc2)noc1C	1%	/	/	0%	/	5%	/	6%
CCOc1ccc(N2CCn3c2nc2c3c(=O)n(CCc3ccccc3)c(=O)n2C)cc1	2%	-15%	/	-1%	-1.3%	/	/	/
COc1ccc(CN2C(=O)c3cccnc3C2=O)cc1S(=O)(=O)N(C)Cc1ccco1	-3%	/	7%[46.1 µM]	-5%	/	-3%	6%[46.1 µM]	8%
O=C1/C(=C/c2ccc(Cl)cc2)NC(=S)N1Cc1cccnc1	-8%	/	-17%[46.1 µM]	1%	/	-22%	?	11%
O=C(CCc1ccccc1)c1c(O)cc(O)cc1O	2%	/	/	-1%	/	-12%	/	4%
COc1cc(C)ccc1OCCSc1nc2ccc(NC(=O)c3ccc(C)cc3)cc2s1	/	-10%	9%[46.1 µM]	/	-0.3%	-24%	?	/
CCOC(=O)c1scc(-c2ccccc2)c1S(=O)(=O)Nc1ccc(N(C)C)cc1	/	?	-16%[46.1 µM]	/	-7.1%	-14%	/	/
O=C(NCCc1ccccc1Cl)C1CCC(=O)N(Cc2ccc(Cl)cc2)C1 (configuration not stated)	-1%	/	5%	0%	/	7%	-8%	4%
COc1ccc(C2CC(=O)c3cnc(N4CCN(Cc5ccccc5)CC4)nc3C2)cc1 (configuration not stated)	-9%	-3%	?	-4%	-6.6%	22µM*	?	11%
Cc1ccc(-c2nnc(N3CCCCC3)c3ccccc23)cc1S(=O)(=O)N1CCN(C)CC1	-9%	-3%	7%	6%	0.5%	?	?	-15%
Cc1ccc(C(=O)N2CCN(c3ccc([N+](=O)[O-])c(NCc4ccco4)c3)CC2)cc1	11%	?	?	1%	-6.3%	0%	?	-12%
O=C(Cn1c(NCCCO)nc2ccccc21)c1ccc(Br)cc1	-6%	9%	15%	-3%	-0.3%	-21%	-24%	5%
CC(=O)N1CCc2cc(S(=O)(=O)NC(CC(C)C)C(=O)NCCc3ccccc3)ccc21 (configuration not stated)	/	6%	-5%[46.1 µM]	/	-2.9%	0%	-4%[46.1 µM]	/
O=C(O)Cn1ccc2ccccc21	?	/	9%[46.1 µM]	-1%	/	5%	18%[46.1 µM]	3%
CC(C(=O)Nc1ccccc1)N1C(=O)c2ccccc2C1=O (configuration not stated)	0%	/	?	0%	/	-4%	9%[46.1 µM]	76%
COc1ccc(C(=O)Cn2cnc3ccc(Cl)cc3c2=O)cc1F	1%	/	-24%	2%	/	10%	-17%	4%
CC(=O)SCC(=O)N=c1sc2cc(F)ccc2n1C	2%	-3%	-19%	/	3.6%	-24%	?	3%
CCc1cc2c(NCCO)ncnc2s1	7%	1%	?	-9%	-0.8%	-9%	-2%[46.1 µM]	-4%
C=CCc1cc(OC)ccc1OCCN(C)Cc1ccccc1	-2%	/	9%[46.1 µM]	?	/	-10%	?	2%
CCN1CCN(C2=C(NS(=O)(=O)c3ccccc3)C(=O)c3ccccc3C2=O)CC1	8%	/	/	-2%	/	?	/	-29%
COc1cccc(C(=O)NC(C)C(c2cccs2)N2CCN(C)CC2)c1 (configuration not stated)	-1%	3%	-1%	0%	4.0%	6%	?	-4%
CCOC(=O)CC1CCCCN1Cc1nc(-c2ccc(F)c(OC)c2)oc1C (configuration not stated)	6%	/	-2%[46.1 µM]	1%	/	-24%	?	6%
COCC(=O)NC1CC2CCCC(C1)N2Cc1ccccc1 (configuration not stated)	-1%	7%	8%	5%	0.2%	5%	6%[46.1 µM]	-1%
CCN(CC)c1ccc(NC(=O)C2CCCN(S(=O)(=O)c3cnc[nH]3)C2)c(C)c1 (configuration not stated)	-20%	-4%	/	-2%	0.3%	4%	/	-5%
O=C(Cc1c(Cl)cccc1Cl)OCc1ccccn1	-13%	/	-10%	-16%	/	11%	5%[46.1 µM]	3%
COC(=O)c1cc(C(=O)OCC(=O)N(C)c2ccccc2)cc([N+](=O)[O-])c1	6%	/	-15%	-1%	/	-9%	6%[46.1 µM]	12%
CC(C)(C)OC(=O)N1Cc2cc3ccccc3nc2C1CO (configuration not stated)	2%	/	/	-1%	/	5%	/	-2%
CCCCSc1nnc(-c2ccc(C)cc2)n1C	-10%	0%	?	-1%	3.1%	15%	25%	2%

Given comma-delimited: five of the compounds above.
molecule,NS1 inh,Cruzain inh noDet,Lassa entry inh,SARS PLpro yeast,Cruzain inh Det,StopGo reporter,MARV entry inh,RE007 growth inh
COc1ccc(CN2C(=O)c3cccnc3C2=O)cc1S(=O)(=O)N(C)Cc1ccco1,-3%,/,7%[46.1 µM],-5%,/,-3%,6%[46.1 µM],8%
O=C1/C(=C/c2ccc(Cl)cc2)NC(=S)N1Cc1cccnc1,-8%,/,-17%[46.1 µM],1%,/,-22%,?,11%
O=C(CCc1ccccc1)c1c(O)cc(O)cc1O,2%,/,/,-1%,/,-12%,/,4%
COc1cc(C)ccc1OCCSc1nc2ccc(NC(=O)c3ccc(C)cc3)cc2s1,/,-10%,9%[46.1 µM],/,-0.3%,-24%,?,/
CCOC(=O)c1scc(-c2ccccc2)c1S(=O)(=O)Nc1ccc(N(C)C)cc1,/,?,-16%[46.1 µM],/,-7.1%,-14%,/,/

(more compounds)
SMILES	NS1 inh	Cruzain inh noDet	Lassa entry inh	SARS PLpro yeast	Cruzain inh Det	StopGo reporter	MARV entry inh	RE007 growth inh
Cc1ccc(O)c(C=Nc2cc(C)ccc2O)c1	-2%	-4%	-12%	-29%	-1.4%	4%	?	-8%
O=C1C2CCCCN2C(=O)N1CCCCN1CCN(c2cccc(C(F)(F)F)c2)CC1 (configuration not stated)	/	/	27%[46.1 µM]	/	/	-15%	-23%[46.1 µM]	0%
COc1ccc(Br)cc1C1CC(=O)Nc2c1c(C)nn2-c1nc(C)cc(C)n1 (configuration not stated)	/	3%	-13%[46.1 µM]	/	-2.5%	?	3%[46.1 µM]	/
O=C(O)Cn1cnc2c(oc3ccccc32)c1=O	4%	/	13%	1%	/	5%	1%	-12%
COC(=O)Cc1c(O)ccn(CCc2c[nH]c3ccc(OC)cc23)c1=O	-1%	/	9%[46.1 µM]	0%	/	0%	3%[46.1 µM]	9%
CC(=O)Oc1ccc(C(=O)Nc2cc(C)ccc2NC(=O)COc2ccccc2)cc1	7%	-3%	20%	-12%	-0.4%	-9%	?	14%
Cc1ccc(Cc2c(C)nc3nc(SCC(=O)NCc4ccco4)nn3c2C)cc1	4%	7%	?	-11%	-3.8%	-17%	-20%&-20%	29%
OCc1nc2ccccc2n1CCCOc1ccc(Br)cc1	-60%	9%	?	/	-8.3%	13%	-13%	18%
CN(CCC#N)C(=O)CSc1ncnc2sc(-c3ccccc3)cc12	-9%	?	3%	1%	-9.1%	-10%	-24%	-2%
Cc1ccc(NC(=O)CN2CCC(Cc3ccccc3)CC2)cc1S(=O)(=O)N(C)C	-6%	/	/	-2%	/	?	/	-10%
CC(/C=C/c1ccccc1)=N\NC(=O)CSc1ccccn1	-17%	13%	-15%	2%	-7.2%	16%	14%	-12%
Cc1ccc(C)c(Cn2nnc3c(=O)[nH]c(C4CCCN(C(=O)C5CCC5)C4)nc32)c1 (configuration not stated)	-10%	?	-10%	0%	-3.3%	-23%	-8%	9%
COc1ccc(/C=N\NC(=O)c2ccc(-c3ccccc3)cc2)cc1COC(C)=O	21%	/	?	6%	/	-21%	-28%	3%
O=C(COc1ccc2c3c(c(=O)oc2c1)CCCC3)N1C[C@H]2C[C@@H](C1)c1cccc(=O)n1C2	-1%	/	/	7%	/	7%	/	3%
Cc1ccc(-n2c(=O)[nH]c3ncccc3c2=O)cc1	1%	/	/	1%	/	-11%	/	-7%
Cc1cccc(C)c1NS(=O)(=O)c1ccc2c(c1)NC(=O)CO2	/	/	-1%	2%	/	-16%	2%	-9%
CCNC(=O)c1ccccc1SCc1ccccc1	7%	/	-18%[46.1 µM]	0%	/	2%	?	-1%
CC(=O)N1CCC(C(=O)Nc2ccc(S(=O)(=O)N3CCC(C)CC3)cc2)CC1	0%	/	-3%	2%	/	-7%	20%	9%
COc1ccc(Br)cc1/C=C/C(=O)c1ccc(NC(C)=O)cc1	6%	?	4µM*	-58%	-5.1%	10µM*	?	-10%
COc1ccc(-n2c(SCC(=O)Nc3ccc(Br)cc3)nc(O)cc2=O)cc1	18%	/	2%	2%	/	-26%	-7%	5%
CC(C)CC(=O)NN1CCCCC1	3%	-3%	11%	-2%	8.4%	-11%	11%	-10%
O=C(O)C1CCCN1S(=O)(=O)c1ccc(Cl)c(Cl)c1 (configuration not stated)	2%	-1%	15%	-1%	0.8%	/	7%	-9%

Source: PubChem
